# FEN1 inh = human FEN1 inhibition; hit rate 0.35% among 390,000; Potency, µM (highest dose often 114 µM), without a hit: at the top dose activity change, negative = inhibition, usual class: inhibitors; P39748; Recombinant FEN1 flap cleavage, fluorescence, 15 min; active = well fitted inhibition curve with a large enough effect; also: nearly all actives have a fitted effect of over 65% in size
# Target sequence (P39748 whole entry, looked up): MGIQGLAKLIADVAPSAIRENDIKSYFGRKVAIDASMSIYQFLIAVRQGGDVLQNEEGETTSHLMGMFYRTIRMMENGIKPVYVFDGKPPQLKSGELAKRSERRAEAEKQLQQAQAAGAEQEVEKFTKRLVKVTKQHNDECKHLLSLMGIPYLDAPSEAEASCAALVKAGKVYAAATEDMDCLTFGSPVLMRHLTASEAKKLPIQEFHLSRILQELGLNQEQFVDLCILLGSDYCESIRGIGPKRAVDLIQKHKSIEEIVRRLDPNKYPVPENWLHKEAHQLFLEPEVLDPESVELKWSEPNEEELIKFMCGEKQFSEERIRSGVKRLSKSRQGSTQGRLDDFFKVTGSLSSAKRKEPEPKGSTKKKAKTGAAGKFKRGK
#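 Recombinant FEN1 (10 nM) was preincubated with pin-transferred compounds for 15 min at room temperature, then flap DNA substrate (50 nM final) was added. Plates were read at 0 and 15 min, and normalized concentration–response data were fitted to a four-parameter Hill equation.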
# Numbers without * were called inactive; & = joins results of further samples. % is scaled to controls: 0 for no effect and ±100 for the full control effect; potency is read from the fitted curve at half-maximal effect. An excerpt; most or all hits stand in other tables.
cpd | canonical_smiles | FEN1 inh
1 | C=CCn1c(SCC(=O)NC2(C#N)CCCCC2)nnc1-c1ccncc1 | 5.4%
2 | Nc1nc2nccc(-c3ccco3)n2n1 | -7.2%
3 | COC(=O)C1=C(C(=O)OC)C2(OC1c1cccc(F)c1)C(=O)c1ccccc1C2=O (centres undefined) | -3.9%
4 | CCC(C(=O)NC(C)(C)C)N(C(=O)Cn1nnc(-c2cccs2)n1)c1cnc2ccccc2c1 (centres undefined) | -14.1%
5 | Cc1sc2ncnc(N3CCC(C(=O)Nc4cc(S(C)(=O)=O)ccc4Cl)CC3)c2c1C | 3.3%
6 | CCN(C(=O)CN1CCc2ccccc21)c1c(N)n(Cc2ccccc2)c(=O)[nH]c1=O | -9.7%
7 | COCCNC(=O)/C(C#N)=C\c1ccc(CNS(=O)(=O)c2ccc(C)cc2)o1 | -7.4%
8 | OC1(C(F)(F)F)CC(c2ccc3ccccc3c2)=NO1 (centres undefined) | -14.2%
9 | CN1CC2CCCC3(C1)C(=O)NC1(CCCCC1)N=C23 (centres undefined) | -2.3%
10 | O=C(c1ccc(Cl)c([N+](=O)[O-])c1)N(Cc1cccc(Cl)c1)C1CCS(=O)(=O)C1 (centres undefined) | 1.1%
11 | O=C1[C@H]2[C@@H](C3CC3)N3C(=O)CN(Cc4ccccn4)C(=O)[C@@]3(Cc3ccccc3)[C@H]2C(=O)N1c1ccccc1 | 7.3%
12 | O=C1CC(c2ccccc2)CC(O)=C1C=NCCN1CCN(C(=S)Nc2cccc(Cl)c2)CC1 (centres undefined) | -2.5%
13 | COc1cc(NC(=O)c2ccco2)c(OC)cc1NC(=O)Nc1ccccc1Cl | -6.3%
14 | O=S(=O)(c1ccc(F)c(F)c1F)N1CCN(C(=S)NC2CC3CCC2C3)CC1 (centres undefined) | 1.0%
15 | CC(C)CC1NC(=O)N(CC(=O)N2CCN(S(=O)(=O)c3ccc(Cl)cc3)CC2)C1=O (centres undefined) | -3.2%
16 | COC(=O)c1ccc(Cn2cnc3c(cnn3-c3ccc(C)c(C)c3)c2=O)o1 | -16.5%

# Some values from the entries so far:
# Under FEN1 inh, no. 14 has 1.0%
# Under FEN1 inh, no. 1 has 5.4%

# (listing goes on)
cpd | canonical_smiles | FEN1 inh
17 | Cc1ccc(NP(=O)(c2ccc(N(C)C)cc2NC(=O)c2cccs2)N2CCOCC2)cc1 (centres undefined) | -13.4%
18 | COc1ccccc1S(=O)(=O)CC(O)COc1ccc(C#N)cc1 (centres undefined) | 5.1%
19 | O=C1C(Cl)=C(N2CCCCC2)C(=O)N1Cc1ccccc1 | -0.8%
20 | Cc1ccc(S(=O)(=O)N(C)C)cc1NC(=S)Nc1ccc2[nH]c(=O)[nH]c2c1 | -14.2%
21 | CCOC(=O)c1sc(=S)n(-c2ccc(F)c(F)c2)c1N | -11.5%
22 | CCc1nc(SCC(=O)NNC(=O)C(C)C)c2ccccc2n1 | -1.4%
23 | CCC(=O)N(CCc1ccc(S(N)(=O)=O)cc1)C1CC(=O)N(c2ccc(OC)cc2)C1=O (centres undefined) | -2.8%
24 | Cc1cc(=O)[nH]c2c(C)c(N)ccc12 | 1.7%
25 | COC(=O)CN1C(=O)N/C(=C/c2ccc(OC)cc2)C1=O | -6.8%
26 | COc1ccc(C(=O)Nc2nnc(C3=COCCO3)o2)cc1 | -3.3%
27 | CCn1c(C)c(C)c2cc(C(=O)NCCCN3CCCCC3)ccc21 | -23.4%&0.6%
28 | S=C(Nc1cccc(Br)c1)c1ccccc1 | 0.2%
29 | CCOc1ccc(CC(=O)N/N=C(\C)c2cccnc2)cc1 | -8.3%
30 | COc1ccc(Nc2nc(C)cc(C)n2)cc1Cl | -23.9%
31 | O=C(CN1CCCC1)NCC1(c2ccccc2)CCOCC1 | -11.7%
32 | COc1ccc(Nc2nc(N)nc(CSC(=S)N3CCN(C)CC3)n2)cc1 | 10.5%
33 | CCOc1ccc(CC(=O)Nc2nccs2)cc1 | -2.7%
34 | O=C(COc1ccc(S(=O)(=O)N2CCCCC2)cc1)NCc1ccncc1 | 0.9%
35 | C/C(=N/NC(=O)c1cn(-c2cccc(C)n2)cn1)c1ccc(C)cc1 | 6.1%
36 | COc1cc(CNCCN2CCOCC2)ccc1OCc1ccccc1Cl | -3.7%
37 | CN1C(C(=O)NCc2cccc(Br)c2)CC2Cn3c(nc4cc5ccccc5cc43)C21 (centres undefined) | -4.1%
38 | O=C(/C=C/c1cccc([N+](=O)[O-])c1)NCc1cccnc1 | 1.1%
39 | CC(C)CC(C(=O)NC1CCCCC1)N(Cc1ccccc1)C(=O)c1snc(C(N)=O)c1N (centres undefined) | -9.0%
40 | COc1ccc(-c2[nH]ncc2CN(C)C(C)c2ccncn2)c(F)c1 (centres undefined) | -9.1%
41 | C=CCn1c(Cc2ccc(OC(C)C)c(Cl)c2)nnc1SCC(N)=O | -0.2%
42 | Cc1sc(N2CCN(S(=O)(=O)c3ccc4c(c3)NC(=O)CO4)CC2)nc1-c1ccccc1 | -2.2%
43 | COc1ccc2oc(C(=O)OCC(=O)Nc3ccc(NC(C)=O)cc3)c(C)c2c1 | 1.5%
44 | CN1C(=O)/C(=C/c2ccccc2OCc2cccc(F)c2)N(C)C1=S | 9.1%
45 | Cc1nnc(SCC(=O)Nc2cc(C(F)(F)F)ccc2Cl)n1C | 22.6%
46 | COC(=O)c1c(NC(=O)C(C)(C)C)sc2c1C(C(=O)OC)CC2 (centres undefined) | -0.2%
47 | Cc1cccc(N(CC(=O)NC2CCCCC2)C(=O)CCCC(=O)Nc2ccccn2)c1 | -0.6%

# Compounds shown so far with a halogen:
cpd | canonical_smiles | FEN1 inh
3 | COC(=O)C1=C(C(=O)OC)C2(OC1c1cccc(F)c1)C(=O)c1ccccc1C2=O (centres undefined) | -3.9%
5 | Cc1sc2ncnc(N3CCC(C(=O)Nc4cc(S(C)(=O)=O)ccc4Cl)CC3)c2c1C | 3.3%
8 | OC1(C(F)(F)F)CC(c2ccc3ccccc3c2)=NO1 (centres undefined) | -14.2%
10 | O=C(c1ccc(Cl)c([N+](=O)[O-])c1)N(Cc1cccc(Cl)c1)C1CCS(=O)(=O)C1 (centres undefined) | 1.1%
12 | O=C1CC(c2ccccc2)CC(O)=C1C=NCCN1CCN(C(=S)Nc2cccc(Cl)c2)CC1 (centres undefined) | -2.5%
13 | COc1cc(NC(=O)c2ccco2)c(OC)cc1NC(=O)Nc1ccccc1Cl | -6.3%
14 | O=S(=O)(c1ccc(F)c(F)c1F)N1CCN(C(=S)NC2CC3CCC2C3)CC1 (centres undefined) | 1.0%
15 | CC(C)CC1NC(=O)N(CC(=O)N2CCN(S(=O)(=O)c3ccc(Cl)cc3)CC2)C1=O (centres undefined) | -3.2%
19 | O=C1C(Cl)=C(N2CCCCC2)C(=O)N1Cc1ccccc1 | -0.8%
21 | CCOC(=O)c1sc(=S)n(-c2ccc(F)c(F)c2)c1N | -11.5%
28 | S=C(Nc1cccc(Br)c1)c1ccccc1 | 0.2%
30 | COc1ccc(Nc2nc(C)cc(C)n2)cc1Cl | -23.9%
36 | COc1cc(CNCCN2CCOCC2)ccc1OCc1ccccc1Cl | -3.7%
37 | CN1C(C(=O)NCc2cccc(Br)c2)CC2Cn3c(nc4cc5ccccc5cc43)C21 (centres undefined) | -4.1%
40 | COc1ccc(-c2[nH]ncc2CN(C)C(C)c2ccncn2)c(F)c1 (centres undefined) | -9.1%
41 | C=CCn1c(Cc2ccc(OC(C)C)c(Cl)c2)nnc1SCC(N)=O | -0.2%
44 | CN1C(=O)/C(=C/c2ccccc2OCc2cccc(F)c2)N(C)C1=S | 9.1%
45 | Cc1nnc(SCC(=O)Nc2cc(C(F)(F)F)ccc2Cl)n1C | 22.6%

# Source: PubChem
